# Compound activity deposited in PubChem BioAssay by National Center for Advancing Translational Sciences (NCATS).
# TSHR ag: qHTS Assay for Agonists of the Thyroid Stimulating Hormone Receptor | AID 926, 2007 | Thyrotropin receptor (Homo sapiens), P16473 | hit rate 0.48% among 73,000 | HEK293-CNG-TSHR cells (CNG channel as cAMP sensor), membrane potential dye, cAMP | Potency, µM (top dose mostly 57.1 µM), inactives show at the highest dose activation, actives largely listed as activators; active = well fitted activation curve of enough size with the parental cells flat; inconclusive = any curve in the parental cells; inactive = parental cells flat and receptor cells flat or falling; note: potency is the fitted concentration of half-maximal effect; % of control where 0% means no effect; weak receptor curves with flat parental cells got no call and are not listed
# Target sequence (P16473 whole entry, looked up): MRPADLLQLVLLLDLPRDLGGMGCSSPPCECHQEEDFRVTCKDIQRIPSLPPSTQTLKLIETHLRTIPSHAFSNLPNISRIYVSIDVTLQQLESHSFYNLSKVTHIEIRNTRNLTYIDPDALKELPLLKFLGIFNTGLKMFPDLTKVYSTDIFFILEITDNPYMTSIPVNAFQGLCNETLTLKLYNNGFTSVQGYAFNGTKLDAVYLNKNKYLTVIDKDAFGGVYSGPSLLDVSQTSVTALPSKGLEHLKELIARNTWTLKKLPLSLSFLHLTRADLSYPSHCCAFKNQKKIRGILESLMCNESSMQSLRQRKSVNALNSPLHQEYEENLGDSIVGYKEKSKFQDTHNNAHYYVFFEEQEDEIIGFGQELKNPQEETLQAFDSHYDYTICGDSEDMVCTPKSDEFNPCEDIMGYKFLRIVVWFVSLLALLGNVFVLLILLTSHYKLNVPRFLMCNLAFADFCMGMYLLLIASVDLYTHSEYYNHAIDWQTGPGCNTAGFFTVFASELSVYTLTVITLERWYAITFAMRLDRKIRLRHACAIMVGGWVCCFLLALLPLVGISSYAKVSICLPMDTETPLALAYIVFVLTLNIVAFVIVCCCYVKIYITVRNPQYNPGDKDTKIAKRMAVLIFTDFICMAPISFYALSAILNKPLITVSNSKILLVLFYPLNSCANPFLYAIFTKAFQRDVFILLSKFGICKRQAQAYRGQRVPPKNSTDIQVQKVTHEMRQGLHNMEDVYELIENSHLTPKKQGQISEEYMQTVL
#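 HEK 293 cells stably expressing TSHR and a cAMP-gated CNG channel; parental CNG-only cells as counterscreen. Cells preloaded 60 min with membrane potential dye plus 100 uM RO 20-1724, then compound 30 min; fluorescence read at 590 nm.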
# AID923: qHTS Assay for Allosteric/Competitive Inhibitors of Caspase-1: Spectroscopic Profiling in AFC Spectral Region. compound fluorescence, AFC spectral region (405/520 nm); almost no hit is shown here. Potency, µM (titrated, usually from 57.5 µM), for inactives: top-dose fluorescence increase, most hits filed as activators. hit rate 1.1% among 75,000; active = well fitted activation curve with a large enough effect; inconclusive = small, poorly fitted or top-dose-only effect;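 note: potency is the fitted concentration of half-maximal effect; 0% is about no effect; scaled to a free AFC standard on each plate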
#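 Baseline compound fluorescence (AFC region, 405 nm ex/520 nm em) taken from the intercept of kinetic reads with 50 nM caspase-1 and 5 uM Ac-WEHD-AFC; normalized to an on-plate AFC standard curve; compounds titrated up to 57 uM.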
# Resorufin fluor: qHTS Assay for Spectroscopic Profiling in Resorufin Spectral Region | hit rate 0.04% among 59,000 | Compound fluorescence, resorufin region 547/598 nm, buffer; hits give high values | max dye-equivalent concentration, M; active = above 10 nM dye equivalent; inconclusive = 1 to 10 nM; inactive = 1 nM or less; a few of its hits are not listed in these tables; note: highest value over a series up to 38 µM
#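 Compounds in 100 mM Tris, pH 8.0, incubated 15 min at room temperature, then fluorescence read at 547 nm excitation/598 nm emission. Signal converted to dye-equivalent concentration via an on-plate six-point resorufin standard curve, per compound concentration.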
# A488 fluor: qHTS Assay for Spectroscopic Profiling in A488 Spectral Region; max dye equivalency, M; compound autofluorescence, A488 spectral region, dye equivalency; hits give high values; AID 591, 2007; hit rate 0.1% among 59,000; active = above 10 nM dye equivalent; inconclusive = 1 to 10 nM; inactive = 1 nM or less; about half of its hits are not listed in these tables;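 note: highest value over a series up to 38 µM; compound alone in buffer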
#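 Compound autofluorescence was read in 100 mM Tris pH 8.0 after 15 min at room temperature, ex 480 nm/em 540 nm. Intensities were converted to A488 dye-equivalent concentration using an on-plate six-point A488 standard curve.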
# A647 autofl: qHTS Assay for Spectroscopic Profiling in A647 Spectral Region; Compound fluorescence, A647 channel (570/671 nm), Tris buffer; max dye-equivalent concentration, M; 59,000 tested, under 10 active; AID 592, 2007; active means above 1 µM dye equivalent; inconclusive means 0.1 to 1 µM; inactive means 0.1 µM or less;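 note: values scaled relative to a standard on each plate; highest value over a series up to 38 µM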
#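 Buffer was dispensed, compounds and Alexa 647 standards were pin-transferred, and plates sat 15 min at room temperature. Intensity at 570/671 nm was then converted to dye-equivalent concentration using the plate's A647 standard curve.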
# Numbers without * were called inactive; i = inactive; ? = inconclusive; / = not tested or not shown; [ ] = remark or other dose. Not all compounds are listed; rates above refer to the full screens.
structure	AID923	A647 autofl	A488 fluor	Resorufin fluor	TSHR ag
CCCc1cc(=O)[nH]c(/N=C(/NC(=O)c2ccccc2)Nc2ccc3c(c2)OCCO3)n1	-0.7%	8.5e-09	i	i	/
COCCNc1cc(C)nc2c(-c3ccccc3OC)c(C)nn12	-1.7%	/	/	/	6.8%
Cc1csc(SCCn2c(N3CCOCC3)nc3c2c(=O)[nH]c(=O)n3C)n1	1.1%	/	/	/	-10.3%
COc1cccc(C2=NOC(C(=O)N3CCc4ccccc4C3)C2)c1 (configuration not stated)	1.0%	/	/	/	?
Cc1nc(CNS(=O)(=O)c2cccnc2)cs1	2.4%	5.5e-09	i	i	2.7%[11.4 µM]
COc1cccc(C=Nc2cccnc2)c1O	1.5%	3.5e-09	i	i	0.8%
CN1CCN(c2ccnc(-c3ccccc3C(F)(F)F)n2)CC1	-2.4%	3.55e-08	i	i	?
CCN(C(=O)CSc1nc2nc(C)cc(C)n2n1)c1ccccc1	-0.9%	1.04e-08	i	i	1.6%
CN(Cc1cc(Cl)cc(Cl)c1O)Cc1c(O)ccc2ccccc12	-0.6%[11.5 µM]	4.43e-08	i	i	-2.4%[11.4 µM]
C=CCn1c(N)cc(=O)nc1SCC(=O)NC(C)c1ccccc1 (configuration not stated)	3.4%	1.2e-09	i	i	-1.8%
COC(=O)CSc1nnc2n(-c3ccc(OC)cc3)c(=O)c3c4c(sc3n12)CCCCC4	/	1.7e-09	i	i	/
Cc1ccc(Cn2nnc(C(=O)Nc3cc(C)ccc3C)c2N)cc1	1.4%	1e-09	i	i	?
CC(=O)N1C(=O)C2(C(C#N)=C(N)Oc3cc(C)oc(=O)c32)c2ccccc21 (configuration not stated)	-1.6%	1.6e-08	i	i	1.2%
COc1cccc(CC(NC(C)=O)C(=O)NC2CCN(c3nc(C)cc(C)c3C#N)CC2)c1 (configuration not stated)	2.3%	1e-09	i	i	-10.2%
COc1ccc2c(c1)c(C(=O)CN1CCOCC1)c(C)n2C	/	4.4e-08	i	i	/
Nc1ncnc2c1ncn2[C@H]1O[C@@H](C(=O)O)[C@@H](O)[C@H]1O	1.1%[11.5 µM]	1e-09	i	i	-3.7%[11.4 µM]
CCN(CC)S(=O)(=O)c1ccc(C(=O)Nc2c3c(nn2C(C)(C)C)CS(=O)(=O)C3)cc1	-1.0%	1e-09	i	i	-0.5%
COC(=O)c1ccc(Oc2nc(Nc3ccccc3)nc(N(C)C)n2)cc1	-0.2%	1e-09	i	i	22.0%
Cc1nnc2n(c1=O)C(CS(=O)(=O)c1ccccc1)CS2 (configuration not stated)	3.9%	2.21e-08	i	i	1.7%
CCOC(=O)c1c(C)[nH]c(C(=O)COC(=O)c2oc3ccc(OC)cc3c2C)c1C	-2.7%	5.2e-09	i	i	3.1%

# A few values from the list.
# Reading for COc1cccc(CC(NC(C)=O)C(=O)NC2CCN(c3nc(C)cc(C)c3C#N)CC2)c1 (configuration not stated) under AID923: 2.3%
# Reading for Cc1nnc2n(c1=O)C(CS(=O)(=O)c1ccccc1)CS2 (configuration not stated) under TSHR ag: 1.7%

# (listing goes on)
structure	AID923	A647 autofl	A488 fluor	Resorufin fluor	TSHR ag
O=C(CN1CCCCCC1=O)OCc1ncc(-c2ccccc2)o1	-1.6%	2.97e-08	i	i	10.0%
C=CCn1c(CSc2nc3ccccc3s2)nnc1SCC(=O)OCC	-2.0%	/	/	/	1.7%
Cc1ccc(Nc2nc(Oc3ccc(OCc4ccccc4)nn3)nc(N3CCOCC3)n2)cc1	-1.9%	5.85e-08	i	i	20.6%
CCCOc1ccc(CSc2nnc(CCC)n2N)cc1	0.9%	1e-09	i	i	0.1%
COC(=O)c1ccsc1NC(=O)CN1CCN(c2ccc(F)cc2)CC1	-0.8%	3.9e-09	i	i	6.9%
COc1cccc2cc(C(=O)N3CCC(C)CC3)c(=O)oc12	2.0%	/	/	/	-0.4%
COC(=O)c1ccccc1N(C)C(=O)C12CCC(C)(C(=O)O1)C2(C)C (configuration not stated)	-1.2%	1.8e-09	i	i	7.8%
CC1(C)CC(=O)C=C(NC2CCS(=O)(=O)C2)C1 (configuration not stated)	2.9%	1e-09	i	i	?
COC(=O)C1=C(N)Oc2cc(C)n(CC3CCCO3)c(=O)c2C1c1ccc(Cl)cc1 (configuration not stated)	1.4%	2.7e-09	i	i	11.7%
Clc1ccc(CSc2nnc([C@@H]3CCCN3)o2)cc1Cl	-0.1%	1e-09	i	i	5.6%
O=C(c1ccc(S(=O)(=O)N2CCCC2)cc1)N1CCN(Cc2ccc3c(c2)OCO3)CC1	-0.5%	2e-08	i	i	-8.8%
CCCC(C)CO (configuration not stated)	-0.4%	/	/	/	?
O=C(CCCn1c(=S)[nH]c2cc3c(cc2c1=O)OCO3)N1CCN(c2ccc(Cl)cc2)CC1	0.6%	6.1e-09	i	i	10.1%
COc1cccc(-c2nc(-c3ccc(NC(=O)c4cccnc4)cc3)no2)c1	-0.9%	1e-09	i	i	-3.5%
C=CCn1c(=O)c2ccccc2n2c(SCC(=O)Nc3cc(C)on3)nnc12	0.3%	4.5e-08	i	i	-4.0%
COc1ccc(OC)c(-n2c(SCC(C)=O)nnc2-c2cccc(S(=O)(=O)N(C)C)c2)c1	-0.7%	1e-09	i	i	?
CN(/N=C\c1ccccc1O)c1ccc2ccccc2n1	-1.0%[11.5 µM]	3.2e-09	i	i	-2.2%[11.4 µM]
COc1cccc(-n2nnnc2SCC(=O)NCc2ccc3c(c2)OCO3)c1	2.9%	1e-09	i	i	?
O=C(Cc1ccccc1)Nc1ccc(N2CCOCC2)cc1N1CCOCC1	0.8%	5.83e-08	i	i	8.4%
Cn1cnc([N+](=O)[O-])c1Sc1nnc(-c2cccnc2)n1C	2.0%[11.5 µM]	3.46e-08	i	i	5.7%[11.4 µM]

# Later entries
structure	AID923	A647 autofl	A488 fluor	Resorufin fluor	TSHR ag
CO[C@H]1OC[C@@]2(C)[C@@H]3C4=C(CN2C(=O)OC(C)(C)C)[C@H](C)[C@H](CO)[C@H](CO)[C@H]4CC[C@H]13	4.4%	/	/	/	9.3%
C=CCNS(=O)(=O)c1nc(C)c(Cl)c(C)c1C#N	0.3%	1e-09	i	i	-0.5%[11.4 µM]
Cc1ccc2nc(CCc3nc4ccc(C)cc4o3)oc2c1	-0.3%	1e-09	i	i	5.1%
CCOc1ccc(N2C(=O)NC(Cc3c[nH]c4ccccc34)C2=O)cc1 (configuration not stated)	-0.6%	1e-09	i	i	-15.2%
COc1ccc(-n2c(=O)cc(N3CCOCC3)[nH]c2=O)cc1	0.7%	1e-09	i	i	2.5%
O=C(O)C1C2CCC(C2)C1C(=O)Nc1cc(F)ccc1F (configuration not stated)	0.8%	3e-09	i	i	/
COc1ccc(NC(=O)CSc2nnc(Cc3cccn3C)n2-c2ccc(F)cc2)cc1OC	-1.9%	/	/	/	-5.1%
CC(=O)N1CCN(S(=O)(=O)c2ccc(S(=O)(=O)NCC(C)C)cc2)CC1	1.4%	6.58e-08	i	i	-2.1%
Clc1ccc(CC[C@H](Cn2ccnc2)Sc2c(Cl)cccc2Cl)cc1	0.7%[25.7 µM]	1.34e-08	i	i	-38.4%[inhibitor][25.6 µM]
CCN(CC)C(=O)C(C)N(C#N)c1nc(SC)nc(N(C)C)n1 (configuration not stated)	-1.0%	1.8e-09	i	i	10.9%
Cc1nc(=O)c(-c2ccccc2)c(C)n1-c1cccc(C(=O)O)c1	-0.8%	2e-09	i	i	?
COc1ccc(N(C)C(=O)Nc2ccc3c(c2)nnn3C)cc1	1.3%	2.62e-08	i	i	2.9%
COc1ccccc1OCCCn1c(=O)oc2ccc(C)cc21	0.1%	2.75e-08	i	i	11.2%
Cc1ccc(Cl)cc1N1CCN(C(=O)C2CCC(=O)N2C(C)C)CC1 (configuration not stated)	2.8%	/	/	/	?
FC(F)(F)c1ccccc1-c1nc(-n2ccnc2)c2ccccc2n1	0.0%	2.26e-08	i	i	?
COc1ccc(C2(C(=O)NCCCN3CCOCC3)CCOCC2)cc1	-0.1%	1.67e-08	i	i	13.8%
CC1CSc2nnc(CCc3ccccc3)n21 (configuration not stated)	0.7%	/	/	/	3.8%
[O-]/[N+](=C/c1cccnc1)c1ccc(Br)cc1	-1.0%	/	/	/	-0.1%[11.4 µM]
COc1cccc(NC(=O)Cn2cnc3sc(C)c(S(=O)(=O)N4CCN(C)CC4)c3c2=O)c1	1.7%	2.1e-08	i	i	5.7%[11.4 µM]
COc1cc(NC(=O)c2ccco2)c(OC)cc1NC(=O)Nc1cccc(Cl)c1	11.3%	1e-09	i	i	?

# (more compounds)
structure	AID923	A647 autofl	A488 fluor	Resorufin fluor	TSHR ag
Cn1c(C(=O)NCC2CCCO2)cc2c(=O)[nH]c3ccccc3c21 (configuration not stated)	-1.1%	4.35e-08	i	i	-3.4%
CCOc1ccc2nc(NC(=O)C3CCCN(S(=O)(=O)c4cccs4)C3)sc2c1 (configuration not stated)	0.0%	1e-09	i	i	-0.1%
S=C1SCN(C2CCCCCCCCCCC2)CN1C1CCCCCCCCCCC1	1.4%[11.5 µM]	1.9e-09	i	i	-8.0%[11.4 µM]
COc1ccccc1N1CCN(C(=O)CSc2nc3ccccc3c(=O)n2CC2CCCO2)CC1 (configuration not stated)	-0.8%	1e-09	i	i	?
CCn1c(SC/C=C/c2ccccc2)nnc1-c1cccs1	0.0%	2.8e-08	i	i	20.7%
Cn1c(COc2ccccc2)nnc1SCc1cc(=O)[nH]c2ccccc12	-1.2%	3.84e-08	i	i	4.6%
CC(=O)Nc1ccccc1C(=O)N1CCc2ccccc21	0.1%	1.3e-09	i	i	-3.7%
CCCSC1=N/C(=C\c2ccsc2)C(=O)S1	-0.1%	/	/	/	18.2%
Cc1ccc(C)c2[nH]c(=O)c(C(c3nnnn3C3CCCC3)N3CCOCC3)cc12 (configuration not stated)	-2.6%	1e-09	i	i	6.0%
CCn1c(SCC(=O)Nc2nc(C)c(C)s2)nnc1-c1cccnc1	1.0%	1e-09	i	i	-7.7%
CN1CCN(CCCNC(=O)c2cc3c(=O)n(C)c4ccccc4c3s2)CC1	2.4%	/	/	/	4.5%
CC1CCCCC1NS(=O)(=O)c1ccc(-n2cnnn2)cc1 (configuration not stated)	-0.5%	1e-09	i	i	3.6%
Cn1c(Cc2ccccc2)nnc1SCC(=O)N1CCN(c2ccccc2)CC1	5.2%	1e-09	i	i	4.2%
COc1ccc(C(CNC(=O)COc2ccccc2C#N)N2CCOCC2)cc1 (configuration not stated)	0.8%	1.73e-08	i	i	3.3%
Cc1nc2cnc(N3CCOCC3)nc2n(CCC#N)c1=O	17.2%	1e-09	i	i	3.8%
CCCNC(=O)Cn1cccc1C(=O)c1ccccc1	-0.3%	2.77e-08	i	i	1.0%[11.4 µM]
Clc1ccc2nc(CN3CCCc4ccccc43)cn2c1	7.0%	1e-09	i	i	-13.5%
COc1cc(OC)c(C2N(C)c3ccccc3N2C)cc1OC	-0.7%	/	/	/	1.0%
COC(=O)c1[nH]c2ccc(Cl)cc2c1NC(=O)CN1CCC(C(N)=O)CC1	1.5%	2.05e-08	i	i	?
COc1ccc(CNC(=O)C2CCN(S(=O)(=O)c3c(C)n[nH]c3C)CC2)cc1	-3.2%	6.6e-09	i	i	1.4%
O=C(c1ccccc1)c1coc2ccc(O)c(CN3CCOCC3)c12	0.5%	3.19e-08	i	i	-1.9%
